# VDR inh: Inhibitors of the vitamin D receptor (VDR): qHTS. AID 504847, 2011. VDR-SRC2-3 peptide fluorescence polarization, 2 h. Vitamin D3 receptor (Homo sapiens), P11473. Potency, µM, inactives show max response, negative = inhibition, usual class: inhibitors. 400,000 tested, 0.93% active; active = well fitted inhibition curve with a large enough effect; inconclusive = small, poorly fitted or top-dose-only effect, or another doubt; inactive = no such curve, though single readings can be large or run the other way; note: series mostly up to about 120 µM
# Target sequence (P11473 whole entry, looked up): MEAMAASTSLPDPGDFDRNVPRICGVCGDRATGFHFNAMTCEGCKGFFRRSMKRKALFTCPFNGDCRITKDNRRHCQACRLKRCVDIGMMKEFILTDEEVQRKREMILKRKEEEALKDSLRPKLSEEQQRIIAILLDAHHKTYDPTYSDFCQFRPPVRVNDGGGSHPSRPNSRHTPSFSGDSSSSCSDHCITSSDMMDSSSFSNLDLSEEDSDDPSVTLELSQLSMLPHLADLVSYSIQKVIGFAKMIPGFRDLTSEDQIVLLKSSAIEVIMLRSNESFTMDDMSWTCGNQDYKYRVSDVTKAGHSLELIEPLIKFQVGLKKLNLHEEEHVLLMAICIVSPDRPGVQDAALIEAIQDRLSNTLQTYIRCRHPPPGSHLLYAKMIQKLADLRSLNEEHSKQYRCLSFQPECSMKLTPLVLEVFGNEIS
#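 Fluorescence polarization assay measuring small-molecule disruption of VDR binding to the coregulator peptide SRC2-3. Compounds were pin-transferred (23 nl) into the reagent mix and incubated 2 h at room temperature before reading.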
# * = called active by the depositor; u = inconclusive; & = joins results of further samples. % is set by controls: 0 for no effect and ±100 for the full control effect; potency is the fitted concentration of half-maximal effect. These rows are one share of the data; count on the stated rates, not on these rows.
VDR inh,structure
5.7%,O=C(Nc1ccc(S(=O)(=O)N2CCOCC2)cc1)C1CC(=O)N(c2ccc(F)cc2)C1 (centres undefined)
1.4%,COc1ccccc1N(CN1CCCC1=O)C(=O)COc1ccccc1
-15.4%,CCC(C)CCN1C(N(C)C)=NC[C@@H]1Cc1ccccc1 (some centres undefined)
-10.4%,Cc1ccc(CNc2nc3c([nH]2)c(=O)n(C)c(=O)n3C)cc1
16.5%,Cc1cccc(N(CC(=O)NC2CCCCC2)C(=O)CCC(=O)Nc2nccs2)c1
11.4%,CC1(c2ccc3noc(-c4cccc(F)c4)c3c2)OCCO1
-3.1%,COc1ccc(S(=O)(=O)N2CCOC2CNC(=O)C(=O)NCCc2ccc(S(N)(=O)=O)cc2)cc1 (centres undefined)
1.2%,COc1cc([N+](=O)[O-])cc(/C=N/NC(=O)c2ccc(C)nc2)c1O
-16.3%,COc1cc(OC)nc(Oc2ccccc2C(=O)Oc2cccc(C)c2)n1
0.4%,CN1CCc2c(sc(NC(=O)CSc3ccc(F)cc3)c2-c2nc3ccccc3s2)C1
-19.5%,CC1CCN(C(=O)Cn2cc(S(=O)(=O)CC(=O)N3CCOCC3)c3ccccc32)CC1
12.4%,Cc1ccc(C)c(-c2cc(C(=O)NN3CCOCC3)c3ccccc3n2)c1

# Seven entries already listed, arranged by the value under VDR inh, falling:
VDR inh,structure
16.5%,Cc1cccc(N(CC(=O)NC2CCCCC2)C(=O)CCC(=O)Nc2nccs2)c1
12.4%,Cc1ccc(C)c(-c2cc(C(=O)NN3CCOCC3)c3ccccc3n2)c1
1.4%,COc1ccccc1N(CN1CCCC1=O)C(=O)COc1ccccc1
1.2%,COc1cc([N+](=O)[O-])cc(/C=N/NC(=O)c2ccc(C)nc2)c1O
0.4%,CN1CCc2c(sc(NC(=O)CSc3ccc(F)cc3)c2-c2nc3ccccc3s2)C1
-15.4%,CCC(C)CCN1C(N(C)C)=NC[C@@H]1Cc1ccccc1 (some centres undefined)
-19.5%,CC1CCN(C(=O)Cn2cc(S(=O)(=O)CC(=O)N3CCOCC3)c3ccccc32)CC1

# Next results.
VDR inh,structure
-2.6%,COC(=O)c1ccc2c(c1)C(=O)/C(=C/c1ccc(C)cc1)O2
3.1%,CCCCN1CC(COCc2ccccc2)Oc2cc(Br)ccc2S1(=O)=O (centres undefined)
-2.4%,CC(O)[C@H]1CNC(=O)C(=O)N1CCc1cc(C(F)(F)F)cc(C(F)(F)F)c1 (some centres undefined)
-10.4%,COc1cccc(C(=O)OCCN2CCOCC2)c1
-1.2%,COC(=O)c1ccc(Nc2ncnc3c2cnn3C)cc1
-5.4%,CCCc1ccc2oc(C(=O)N3CCC(O)CC3)c(C)c2c1
-8.0%,O=S(=O)(Nc1ccncc1Cl)c1cccc(Cl)c1Cl
13.7%,Cc1nc(COc2ccccc2Cl)sc1-c1ccnc(N)n1
u,CC(=O)N1CCC2(CCCN(C(c3ccccc3)c3ccccc3)C2)CC1
-12.1%,CCCC(=O)N(CCN1CCOCC1)c1nc2c(C)ccc(C)c2s1
-10.1%,CCCN1CCC(NC(=S)Nc2ccc(S(N)(=O)=O)cc2)CC1
-13.3%,CCOC(=O)N1CCN(c2c(NCCCOC(C)C)c(=O)c2=O)CC1

# (listing goes on)
VDR inh,structure
3.2%,Cc1cccc(Oc2cnn(C(C)(C)C)c(=O)c2Cl)c1
9.4%,COc1ccc(NC(=O)Cc2csc(COc3cccc(C)c3)n2)cc1OC
-2.3%,Cc1ccc(S(=O)(=O)N2CCN(c3ncnc4sccc34)CC2)cc1
5.0%,Cc1ccc(C)c(NC(=O)C2CC(O)CN2C(=O)OCc2ccccc2)c1 (centres undefined)
-5.5%,Cc1ccc(Cc2cnc(NC(=O)/C(C#N)=C/c3ccc(-c4ccccc4[N+](=O)[O-])o3)s2)cc1
-28.8%,Cc1ccc(NC(=O)COC(=O)C2CC2)cc1Cl
-5.6%,OC1(Cc2ccccc2)CCNCC1
-7.8%,COc1ccc(N2C(=O)C3[C@@H](C2=O)C2(Cl)C(Cl)=C(Cl)C3(Cl)C2(OC)OC)cc1 (some centres undefined)
11.6%,CCN(CC)CCCNC(=O)Cn1cnc2sc(C)c(S(=O)(=O)N3CCC(C)CC3)c2c1=O
-3.1%,CN(C(=S)NC(=O)c1ccccc1Br)C1CCCCC1
0.9%,CCOc1ccc(CNc2ccc(N3CCN(Cc4ccccc4)CC3)cc2)cc1
-9.1%,COc1cccc(NC(=O)c2cc(-c3ccncc3)nc3c(C)cc(C)cc23)c1

# The results go on:
VDR inh,structure
25.9%,COCCNC(=O)CN1CCN(C(c2ccccc2)c2ccccc2)CC1
-12.0%,COc1ccc(-c2cc(C(F)(F)F)nc(SCCC(=O)Nc3ccccc3F)n2)cc1
-12.8%,O=S(=O)(Nc1ccc(Br)cc1)c1ccc2nc(-c3ccccc3)[nH]c2c1
-1.5%,COCC(C)NC(=O)CSc1ncnc2sc(-c3ccccc3)cc12 (centres undefined)
6.3%,COc1ccc(CNC(=O)CN(Cc2ccccc2)C(=O)c2csnn2)cc1
22.2%,CCOC(=O)Cn1c(=O)oc2cc(S(=O)(=O)N3CCN(c4cccc(Cl)c4)CC3)ccc21
-9.0%,CCc1c(C(=O)NC(C)C2CCCO2)csc1C (centres undefined)
-0.7%,COCCNC(=O)CN(Cc1ccco1)C(=O)CCC(=O)Nc1nccs1
-24.7%,COc1ccc(-c2nnn(CC(=O)N(Cc3ccco3)C(C(=O)NCC3CCCO3)c3ccco3)n2)cc1 (centres undefined)
-29.0%,O=C(CN1C(=O)NC2NC(=O)NC21)N/N=C/c1ccc(F)cc1 (centres undefined)
-2.7%,Cc1ccc(-c2nnn3c2nc(NCCc2ccccc2)c2ccccc23)cc1
2.1%,COc1ccccc1CC(=O)Nc1ccc2nc(C)sc2c1

# Remaining list, next part.
VDR inh,structure
-3.3%,CCCc1cn(S(=O)(=O)c2ccc(OC)cc2OC)nc1N
-16.3%,Cc1ccccc1NC(=O)Cc1nc(-c2c[nH]c(C(=O)N3CCCC3)c2)cs1
-0.1%,COc1cc2c(cc1OC)CC(=O)N(C)CC2
13.0%,CCOc1ccc(CCNC(=O)CCc2nnc3ccc(N4CCOCC4)nn23)cc1OCC
-17.5%,Cn1nc([N+](=O)[O-])nc1Oc1ccccc1C(=O)N1CCOCC1
-1.5%,N/C(=N\OC(=O)c1ccccc1Cl)c1ccccc1
4.4%&8.5%,CC(=O)C1=C(C)N(Cc2ccccc2)C(=O)N[C@H]1c1cccs1
10.0%,COC(=O)c1cc(OC(=O)c2ccc(=O)[nH]c2)cc(C(=O)OC)c1
26.2%,CCN(CC)CCOC(=O)c1ccc(N/C=C(/C#N)c2nc(-c3ccc(OC)cc3)cs2)cc1
8.3%,O=C(NC1CCOc2ccccc21)c1ccc(=O)[nH]c1 (centres undefined)
-5.8%,O=C(C1CC(=O)N(c2ccc3c(c2)OCCO3)C1)N1CCN(Cc2ccccc2)CC1 (centres undefined)
-9.7%,COCCCn1c(=O)/c(=C\c2cccc(OC)c2OC)s/c1=C(/C#N)C(=O)Nc1ccc(C(=O)O)cc1

# New compounds follow
VDR inh,structure
19.2%,O=C(NCc1ccc2c(c1)OCO2)c1ccc2c(=O)n(C3CCCC3)c(=O)[nH]c2c1
-12.6%,Cn1cnc([N+](=O)[O-])c1Sc1ccc(C(C)(C)C)cc1
-11.8%,Cc1ccc(S(=O)(=O)NC(C)C(=O)Nc2ccc3c(c2)OCO3)cc1 (centres undefined)
-2.6%,O=C(CSc1ccccn1)Nc1ccc2[nH]c(=O)[nH]c2c1
-22.5%,Cc1ccc(N=C2C(=O)Nc3c(C)cccc32)cc1
-7.0%,C=CCN(C(=O)c1csnn1)C(C(=O)NC1CCCC1)c1cccs1 (centres undefined)
-8.7%,COc1ccc(/C=C/C(=O)N2CCNC(=O)C2)c(OC)c1
7.1%,O=C(NC1(C(F)(F)F)N=C(c2ccccc2)N(C2CCCCC2)C1=O)c1ccccc1F (centres undefined)
-2.2%,Cc1ccc(S(=O)(=O)Nc2cc(C)c(O)c(S(=O)(=O)c3ccc(C)cc3)c2)cc1
6.2%,O=C(CC1C(=O)NCCN1C(=O)Nc1ccc(F)cc1F)Nc1ccc(F)cc1 (centres undefined)
1.3%,O=c1[nH]cc(COCC(F)CCl)c(=O)[nH]1 (centres undefined)
-1.0%,CCC(C)CCN1C(Nc2ccccc2)=NC[C@@H]1CC(C)C (some centres undefined)

# Next entries follow.
VDR inh,structure
6.2%,Cn1c2c(c(=O)n(C)c1=O)NC1(N2)C(=O)Nc2ccccc21 (centres undefined)
-15.2%,CCCCC/C=C\C[C@@H](O)/C=C/C=C/C=C/[C@@H](O)CCCC(=O)O
8.3%,O=C1COc2ccc(S(=O)(=O)NCCc3ccc(Cl)cc3)cc2N1
8.9%,COc1ccc2c(C)c(CCC(=O)NC3CC3)c(=O)oc2c1
14.6%,CSc1cccc(Nc2ccc(S(=O)(=O)N3CCOCC3)cc2[N+](=O)[O-])c1
-19.8%,CCCCCC(=O)Nc1cccc(S(=O)(=O)NC2=NCCCCC2)c1
-8.3%,CC(=O)NCc1cc(-c2ccc(Cl)cc2)no1
5.2%,Cc1c(Cl)cccc1N1C(=O)CC(NNC(=O)c2cccs2)C1=O (centres undefined)
3.0%,COc1cc(NC(=O)C2=C(N3CCOCC3)/C(=C\c3ccc(Cl)cc3Cl)CC2)cc(OC)c1OC
-8.8%,CCOC(=O)c1c(S(=O)(=O)N2CCN(c3ccc(F)cc3)CC2)c(C)n(C)c1C
4.0%,OCCNc1nc(N2CCCCC2)nc2ccccc12
-11.2%,COc1cccc(NC(=O)COc2nc3ccccc3nc2C)c1

# Later entries.
VDR inh,structure
-3.4%,CC(C)COc1ccc(C2=NC(c3ccncc3)=Nc3ccc(F)cc3N2)cc1
0.7%,COc1ccc(-c2n[nH]c(=S)n2-c2ccc(Br)cc2)cc1OC
5.7%,Cc1nc2c(C)cccn2c(=O)c1NC(=O)c1ccco1
4.9%,Cn1c(N2CCCC2)nc2c1c(=O)n(Cc1cccc(F)c1)c(=O)n2C
13.4%,Cc1cccc(C(=O)O/N=C2\CCS(=O)(=O)c3sccc32)c1
-5.3%,Cc1ccnc2nc(C(=O)OCC(=O)NCc3cccc(Cl)c3)nn12
17.2%,CC1CCN(C(=O)c2ccc3c(c2NCCO)C(=O)c2ccccc2C3=O)CC1
-3.9%,COc1ccc(/C=N/NC(=O)CN2CCSCC2)cc1C
3.0%&-13.8%,Cc1ccc(-c2cc(C(=O)O)c3cc(Br)ccc3n2)s1
-2.9%,CCN(CC)c1ccc(C2Nc3ccccc3-c3cc(C)nn32)cc1 (centres undefined)
39.8µM*,O=c1/c(=C\c2cc([N+](=O)[O-])cc([N+](=O)[O-])c2O)sc2nc3ccccc3n12
5.1%,NC(=O)C1(N2CCCCC2)CCN(CC(=O)Nc2ccccc2Sc2ccccc2)CC1

# The listing continues.
VDR inh,structure
-5.4%,C(=C\c1ccccc1)/C=N/Nc1nc2ccccc2s1
-9.2%,O=C(CCCN1C(=O)c2ccccc2C1=O)Oc1ccc(Cl)cc1
9.0%,COc1ccc(-c2nnc(SCC(=O)NC3CCCCC3)o2)cc1OC
0.0%,COc1cccc(-c2cc(C(F)(F)F)nc(NCc3ccc(F)cc3)n2)c1
-5.0%,COc1ccc(C=O)cc1Cn1ccnc1C
-9.6%,CCc1ccc2[nH]c(=O)c(CN(Cc3ccccc3)Cc3nnnn3Cc3ccccc3)cc2c1
4.9%,CCCn1c2ccccc2c2cnn(CC(=O)N(CCCOC(C)C)Cc3ccco3)c(=O)c21
9.6%,CC(=O)N1c2ccc(S(=O)(=O)N3CCC(C(=O)N4CC(C)CC(C)C4)CC3)cc2CC1C (centres undefined)
8.2%,O=C(COC(=O)Cc1ccc([N+](=O)[O-])cc1)NC1CCCCCC1
2.8%,COc1ccc(NC(=O)NCCN2CCCCC2)cc1
u,Oc1ccc(Br)cc1C1C=C(c2ccc3c(c2)OCO3)NC(c2c(F)cccc2Cl)N1 (centres undefined)
-2.4%,CC(C)OC(=O)C1CC=CCC1C(=O)Nc1ccc(Cl)cc1 (centres undefined)

# New compounds follow
VDR inh,structure
-3.3%,COCCn1nnnc1C(CC(C)C)N1CCN(c2nc3ccccc3s2)CC1 (centres undefined)
24.1%,CCCCC(=O)NC(=S)Nc1cccc(NC(=O)c2ccccc2)c1
12.9%,COCCOC(=O)C1=C(C)N=C2SCCC(=O)N2C1c1cccc(Br)c1 (centres undefined)
-6.4%,O=C(C(Cc1ccccc1)n1cccc1)N1CCN(c2ccccc2)CC1 (centres undefined)
-8.6%,COc1ccccc1-c1nnc(NC(=O)c2ccc3c(c2)OCO3)s1
1.6%,COCCn1c(SCC(=O)Nc2cc(C(C)(C)C)nn2-c2ccccc2)nnc1-c1ccncc1
-6.4%,COc1ccc(C2C=C(c3ccc(F)cc3)Nc3nc(-c4ccc(Cl)cc4)nn32)cc1 (centres undefined)
9.4%,COCCN1CCc2nc(SCC(=O)Nc3ccc(Br)cc3)[nH]c(=O)c2C1
11.7%,COc1cccc(CNC(=O)c2ccc(-n3c(C)cc4c3CCCC4)cc2)c1
u,N#CC1=C(N)SC(N)=C(C#N)C1c1c(Cl)cccc1Cl
u,COCc1cccc(C2=CC(=O)C[C@H](c3ccc(F)cc3)C2)c1
3.6%,Cc1ccc(S(=O)(=O)/N=C(/Nc2ccccn2)c2ccc(Cl)cc2)cc1

# Continued:
VDR inh,structure
u,Cc1nc(C)c(C(=O)Nc2ncc([N+](=O)[O-])s2)o1
15.4%,Cc1ccc(C(=O)N(C)Cc2nc3ccccc3c(=O)[nH]2)cc1NC(=O)c1ccco1
-14.4%,COc1ccc(CCNC(=O)Cc2cc3c(cc2[N+](=O)[O-])OCO3)cc1OC
16.2%,O=C(CSc1nnnn1-c1ccc(F)cc1)Nc1ccc(N2CCOCC2)c(Cl)c1
2.7%,COc1ccc2c(c1)N(C[C@H](C)CN(C)C)c1ccccc1S2
10.8%,O=C(N/N=C/c1c(Cl)[nH]c2ccccc12)c1ccc2c(c1)OCCO2
-1.7%&8.7%,CCOC(=O)CN1C(=O)N[C@@H](c2ccccc2)C(C(C)=O)=C1C
